Mtb MbtI inh – MbtI salicylate synthase inhibition; purified MbtI enzyme, fluorescence intensity read-out; P9WFX0; inhibition, %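 (about 17 µg/mL by stock and volumes)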; 0.89% of 100,000 active; AID 493033;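 active = above 50% in both replicates, above 80% if mildly self-fluorescent; inactive = the rest, strongly fluorescent compounds included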;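 also: 0% = mean of negative and 100% = mean of positive controls; one replicate is shown; some compounds called inactive have numbers as strong as hits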
Mtb MenB inh – Mtb MenB enzyme inhibition; P9WNP5; AID 540299; MenB enzyme assay, absorbance read-out; some hits fall short of the stated cut; 0.43% of 100,000 active; inhibition, %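 (about 12 µg/mL by stock and volumes)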;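 active = mean of two replicates above 30%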;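 also: 0% = no compound and 100% = wells with inactive enzyme; the first replicate is given; strong numbers were not always called active; inactives centre near -10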
Target sequence (P9WNP5 whole entry, looked up): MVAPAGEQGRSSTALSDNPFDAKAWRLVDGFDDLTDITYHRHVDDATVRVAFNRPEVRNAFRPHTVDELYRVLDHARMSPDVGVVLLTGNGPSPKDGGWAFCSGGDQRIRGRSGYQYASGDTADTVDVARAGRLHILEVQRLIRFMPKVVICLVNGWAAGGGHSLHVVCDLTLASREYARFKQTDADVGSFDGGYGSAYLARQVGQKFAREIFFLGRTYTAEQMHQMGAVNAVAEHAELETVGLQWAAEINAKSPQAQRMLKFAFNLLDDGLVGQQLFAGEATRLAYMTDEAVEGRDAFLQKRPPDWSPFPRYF
PV pol inh – inhibitors of poliovirus RNA polymerase binding and polymerization; P03300; poliovirus polymerase elongation, fluorescence polarization; hits give low values; % elongation, % (compound at 16.7 µg/mL); 0.66% of 150,000 active; AID 588519; in the data active = % elongation below about 90%; also: some results filed as inactive read as strong as hits
Target sequence (P03300 1749-2209 limits assumed): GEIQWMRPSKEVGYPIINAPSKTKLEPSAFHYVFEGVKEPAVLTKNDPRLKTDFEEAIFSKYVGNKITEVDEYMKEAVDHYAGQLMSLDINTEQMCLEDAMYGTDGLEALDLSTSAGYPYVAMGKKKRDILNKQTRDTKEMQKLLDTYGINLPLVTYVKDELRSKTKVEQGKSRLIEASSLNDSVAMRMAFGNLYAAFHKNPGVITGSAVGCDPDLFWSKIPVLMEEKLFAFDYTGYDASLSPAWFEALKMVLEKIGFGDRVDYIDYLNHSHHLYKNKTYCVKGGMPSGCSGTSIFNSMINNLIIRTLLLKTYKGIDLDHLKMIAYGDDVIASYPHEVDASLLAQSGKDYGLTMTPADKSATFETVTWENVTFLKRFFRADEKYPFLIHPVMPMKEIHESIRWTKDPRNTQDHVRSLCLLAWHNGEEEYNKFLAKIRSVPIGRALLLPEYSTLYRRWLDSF
PV pol inh intensity – also measured in PV pol inh; calls as there; % elongation; measured here: total intensity read-out; formula for this scale not given here;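 total fluorescence in place of polarization; lower means less elongation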
Starred values were filed as active, the others as inactive; . = not tested or not shown.

1: COC(=O)COc1ccc(NC(=O)c2ccco2)cc1
2: CCCCn1c2nc3ccccc3nc2c2cccc(C)c21
3: COCC(C)N=C=S (stereo not drawn)
4: Cc1cc(=O)oc2cc3occ(C(C)(C)C)c3cc12
5: CC1(C)CC(=O)C2=C(C1)NCN(Cc1ccc3c(c1)OCO3)C2
6: Cc1cc(C(=O)NCC2CCCO2)c2c(C)nn(-c3ccccc3Cl)c2n1 (stereo not drawn)
7: Cc1cccc(-c2cc(=O)c3cc(C)ccc3o2)c1
8: Cc1c(Cl)cccc1NC(=O)c1ccc(N2C(=O)c3ccccc3C2=O)cc1

Assay by compound,1,2,3,4,5,6,7,8
Mtb MbtI inh,6,-5,-6,-17,8,14,.,3
Mtb MenB inh,8,-12,-7,13,-22,-35,-9,0
PV pol inh,100,100,102,103,103,101,106,104
PV pol inh intensity,106,119,107,103,102,101,111,103

9: CN(C)S(=O)(=O)c1ccc2c(c1)c(=O)c(C(=O)NCc1ccccc1)cn2C
10: COc1ccccc1Oc1ccc(N/C=C/C(=O)c2ccco2)cc1
11: O=C(CCOc1ccccc1)Nc1ccccc1N1CCCC1
12: O=C(CC12CC3CC(CC(Br)(C3)C1)C2)OCC(=O)N1CCCC1
13: Cc1ccc(S(=O)(=O)N2CCCC2C(=O)OCc2nc3ccsc3c(=O)[nH]2)cc1 (stereo not drawn)
14: CCCCN(Cc1ccccc1)Cc1ccco1
15: O=C(O)c1cc2cc(Cl)ccc2oc1=O
16: COc1ccccc1Cn1c(=S)[nH]c2cc(C(=O)NCc3ccco3)ccc2c1=O

Assay by compound,9,10,11,12,13,14,15,16
Mtb MbtI inh,2,-70,-14,-7,6,-3,3,-1
Mtb MenB inh,-5,-168,-23,.,-28,-24,3,-24
PV pol inh,101,103,109,103,106,100,97,104
PV pol inh intensity,106,107,106,106,109,101,91,105

17: COC(=O)N/N=C(/c1ccccc1)C1CCCCC1
18: CC(N=C1NS(=O)(=O)c2ccccc21)C(=O)NCCc1ccc2c(c1)OCCO2 (stereo not drawn)
19: Cc1ccccc1-n1c(SCC(N)=O)nnc1-c1ccc(Cl)cc1
20: C=CCn1nnnc1SCC(=O)Nc1ccccc1C(=O)OC
21: Cc1sc2c(c1C)CSC(C(=O)Oc1cccnc1)=C2
22: CC(C)(C)c1ccc(Oc2ccc(NC(=O)CCCC(=O)O)cc2)cc1
23: Cc1ccc(S(=O)(=O)N(CC(=O)N2CCC(C)CC2)CC(=O)N2CCC(C)CC2)cc1
24: COc1ccc(CNCC2(c3ccccc3)CCCC2)cc1

Assay by compound,17,18,19,20,21,22,23,24
Mtb MbtI inh,-2,-11,-14,-24,51,9,-20,.
Mtb MenB inh,-6,-8,.,-16,-45,3,-18,-20
PV pol inh,103,108,103,99,98,101,101,97
PV pol inh intensity,105,108,105,103,100,102,104,92

25: CC(C)NC(=O)C1c2ccccc2Oc2ccccc21
26: C1CCN2C[C@H]3C[C@@H](CN4CCCC[C@@H]34)[C@H]2C1
27: Cc1ccc2c(CC(=O)N3CCN(c4ncccn4)CC3)coc2c1
28: CCCCN(C)C(=O)c1cc2c(Cl)nc3ccccc3c2s1
29: CCOC(=O)C1(Cc2ccc(O)cc2)NC(c2ccccc2F)C2C(=O)N(C)C(=O)C21 (stereo not drawn)
30: O=C(c1ccc(F)cc1)N1CCCCC(N2CCN(S(=O)(=O)c3ccccc3)CC2)C1=O (stereo not drawn)
31: Cc1nc(COc2cccc(C(=O)O)c2)cs1
32: Cc1cc(=O)[nH]c(NN)n1

Assay by compound,25,26,27,28,29,30,31,32
Mtb MbtI inh,1,-13,-23,-4,-4,-5,6,-3
Mtb MenB inh,14,-1,4,-6,-11,-21,11,-78
PV pol inh,104,101,105,103,102,104,106,115
PV pol inh intensity,101,102,108,105,102,103,98,110

33: CCCNS(=O)(=O)c1cc2c3c(c1)c(C)cc(=O)n3CC2
34: O=C(O)C1C2C=CC(C2)C1C(=O)OCC1CCCO1 (stereo not drawn)
35: Cc1ccccc1CSC(SCc1ccccc1C)=C(C#N)C(=O)NCc1ccco1
36: CCc1ccc(/C=C2\C(=O)NC(C)=C2C(=O)OC)cc1
37: CC(Nc1ccccc1CO)C(=O)Nc1cccc(Cl)c1 (stereo not drawn)
38: Nc1nc(-c2ccccc2)cn1/N=C/c1ccccc1
39: CCCC(=O)Nc1nnc(Cc2ccc(Cl)cc2)s1
40: O=C1N(c2ccccc2)C(c2ccc(Br)cc2)C12CCCCC2 (stereo not drawn)

Assay by compound,33,34,35,36,37,38,39,40
Mtb MbtI inh,43,.,-3,5,9,-18,.,.
Mtb MenB inh,-17,-11,-3,-89,-2,-29,-21,-17
PV pol inh,102,97,101,102,101,104,104,103
PV pol inh intensity,102,92,105,103,100,95,100,104

41: COc1cc(C(C)n2ccnc2)cc(Br)c1O (stereo not drawn)
42: CC(=O)NC(CC(=O)Nc1nc2ccccc2[nH]1)c1ccccc1 (stereo not drawn)
43: O=C(c1ccccc1-c1ccccc1)N1CCOCC1
44: O=C(CN1C(=O)c2ccccc2S1(=O)=O)NC1=NN(c2ccccc2)C(=O)C1
45: O=C(COc1ccccc1F)OCc1cccc(C(F)(F)F)c1
46: CC(C)CC(N=Cc1c(O)c2ccccc2oc1=O)C(=O)O (stereo not drawn)
47: O=C(COC(=O)C1CC(O)CN1C(=O)Oc1ccccc1)c1ccc(-c2ccccc2)cc1 (stereo not drawn)
48: COc1ccc2nccc(C(=O)O)c2c1

Assay by compound,41,42,43,44,45,46,47,48
Mtb MbtI inh,3,5,-5,20,14,14,.,-2
Mtb MenB inh,-23,-8,0,-13,0,-8,-11,-2
PV pol inh,112,104,100,100,103,100,101,99
PV pol inh intensity,112,119,101,95,102,102,101,102

49: Cc1cc(/C=N/NC(N)=O)c(C)c(CO)c1
50: CCOC(=O)c1ccc(-n2cnnn2)cc1
51: COc1ccc(Cn2c(SCc3cccc(C(F)(F)F)c3)nc3ccncc32)cc1
52: COc1ccc(/C=C2\SC(=O)N(CCC(=O)N3CCN(C)CC3)C2=O)cc1
53: COc1ccc(-n2cnnc2SCC(=O)N(Cc2ccccc2)C(C)C)cc1
54: O=S(=O)(Nc1cccc(-c2ccc(N3CCCC3)nn2)c1)c1ccccc1
55: CSC1=NSC2=NC(=O)/C(=C\c3cccc4ccccc34)C(=N)N12
56: CN(C)c1ccc(/C=N/NC(=O)C(O)(c2ccccc2)c2ccccc2)o1

Assay by compound,49,50,51,52,53,54,55,56
Mtb MbtI inh,7,4,13,-1,1,-14,-9,23
Mtb MenB inh,-13,-21,-27,-18,5,-9,-7,-44
PV pol inh,103,97,104,101,105,102,100,103
PV pol inh intensity,100,101,101,100,99,102,101,105

57: COc1ccc(C(=O)CC(C(=O)c2ccccc2)c2ccccc2)cc1 (stereo not drawn)
58: O=C(c1cc(-c2csc(-c3ccccn3)n2)c[nH]1)N1CCCC1
59: O=C1NC2(CCOc3ccccc32)C(=O)N1CCOc1c(Cl)cccc1Cl (stereo not drawn)
60: COC(=O)c1cc(S(=O)(=O)N2c3ccccc3CC2C)c[nH]1 (stereo not drawn)
61: Cc1cc(NC(=O)Cn2c(=O)n(CC(=O)NCCc3ccccc3)c(=O)c3ccccc32)n[nH]1
62: O=S(=O)(c1ccc(NN=C2CCCC2)nc1)N1CCCCC1
63: CCC(=O)N(c1nnc(SCC(=O)Nc2c(C)nn(-c3ccccc3)c2C)s1)C1CC1
64: Cc1cccc(CSc2nc3ccncc3n2CC(=O)N2CCCC2)c1

Assay by compound,57,58,59,60,61,62,63,64
Mtb MbtI inh,-29,-34,0,-10,8,12,10,13
Mtb MenB inh,2,-27,-27,-11,-25,-4,-9,4
PV pol inh,102,105,105,105,104,100,95,101
PV pol inh intensity,112,104,104,104,104,108,103,99

65: O=C(c1cc(-c2ccc(F)cc2)nc2ccccc12)N1CCOCC1
66: O=C(O)CCCC(=O)Nc1nc2nccc(-c3ccccc3)n2n1
67: Cc1ccnc(SCc2cc(=O)n3[nH]c(C)nc3n2)n1
68: NNc1ncccc1C(=O)O
69: Fc1ccc(-c2csc(N3CCN(C/C=C\c4ccccc4)CC3)n2)cc1
70: CC1(c2ccc3noc(-c4ccccc4)c3c2)OCCO1
71: O=C(Oc1ccc(OC(=O)c2ccncc2)cc1)c1ccncc1
72: Cc1ccc(-c2nc3ncccc3o2)cc1N

Assay by compound,65,66,67,68,69,70,71,72
Mtb MbtI inh,-11,117,7,-22,.,.,0,6
Mtb MenB inh,.,-18,20,-54,-6,0,-15,4
PV pol inh,100,105,102,106,105,105,104,101
PV pol inh intensity,101,102,103,102,112,105,103,100

73: Cc1ccc2[nH]c3c(c2c1)CCCC3O (stereo not drawn)
74: Cc1ccc(CC/C=N/N=C2\NC(=O)CS2)o1
75: CCCCC1(C(=O)OCC)CC(C)(c2csc(N)n2)OC1=O (stereo not drawn)
76: COc1ccc2oc(C(=O)N(C)Cc3ccc(Br)s3)c(C)c2c1
77: CCn1c(=O)c(=O)[nH]c2cc(C(=O)N3CCN(c4ccccc4F)CC3)ccc21
78: O=C(O)Cc1csc2ccc(Cl)cc12
79: O=C1[C@@H]2CSC(c3ccc(F)cc3)N2C(=O)N1c1ccccc1 (stereo partly drawn)
80: CC(=O)NC(C(=O)O)C1CCCC1 (stereo not drawn)

Assay by compound,73,74,75,76,77,78,79,80
Mtb MbtI inh,53,13,.,21,31,-7,6,10
Mtb MenB inh,-13,2,5,-5,18,1,4,-19
PV pol inh,103,102,97,100,101,100,106,101
PV pol inh intensity,101,102,101,101,102,105,99,108

81: O=C(Nc1ccccc1-c1ccccc1)C1CCCO1 (stereo not drawn)
82: Cn1c(SCc2ccc(F)cc2)nc2ccc(C(=O)NCCc3ccc(Cl)cc3)cc21
83: O=C(c1ccc(Cl)cc1)c1oc2ccccc2c1-c1cnn(-c2ccccc2)c1
84: CCCNC(=O)CSc1nnc(-c2cccnc2)n1C1CCCCC1
85: CCOc1ccc(N2C(=O)CC(NCCNC(=O)c3ccc(Cl)cc3)C2=O)cc1 (stereo not drawn)
86: CCN1CCn2c1nc(N1CCCCC1)nc2=O
87: Cc1cccc(C)c1Nc1nc2c(C)cc(C)c(C)c2s1
88: Cc1cnc2c(c1SCC(=O)N1CCC(C)CC1)c(=O)n(C)c(=O)n2C

Assay by compound,81,82,83,84,85,86,87,88
Mtb MbtI inh,-4,6,.,4,5,2,-12,-12
Mtb MenB inh,1,-30,1,-48,27*,7,-7,-8
PV pol inh,100,104,103,102,102,98,107,101
PV pol inh intensity,101,99,111,98,106,102,109,104

89: COc1ccc(Cn2c(=O)c(=O)oc3ccccc32)cc1OC
90: COCCN1C(=O)/C(=C2/C(=O)N(OC)c3ccccc32)SC1=S
91: CCN(CC)CCCN1C(=O)C(O)=C(C(=O)c2ccc(C)o2)C1c1cccnc1 (stereo not drawn)
92: CC(=O)Nc1ccc(N2CCN(C(=O)c3ccco3)CC2)cc1
93: CC1=Nc2cc(C(=O)O)ccc2Sc2c(C)ccc(C)c21
94: O=C(O)CC1(CC(=O)Nc2cccc3nonc23)CCCCC1
95: O=c1c2c(nc3nc(NCc4c(F)cccc4Cl)[nH]n13)CCC2
96: NNC(=S)NCc1ccc(F)cc1

Assay by compound,89,90,91,92,93,94,95,96
Mtb MbtI inh,-37,.,-18,0,-4,-10,1,-5
Mtb MenB inh,-33,-3,-14,12,-27,-27,-11,2
PV pol inh,101,102,101,100,102,99,102,103
PV pol inh intensity,101,97,104,99,102,94,98,107

Part of the list above, with two lines to a compound.
Fields – Mtb MbtI inh, Mtb MenB inh, PV pol inh, PV pol inh intensity
(91) CCN(CC)CCCN1C(=O)C(O)=C(C(=O)c2ccc(C)o2)C1c1cccnc1 (stereo not drawn)
→ -18, -14, 101, 104
(89) COc1ccc(Cn2c(=O)c(=O)oc3ccccc32)cc1OC
→ -37, -33, 101, 101
(96) NNC(=S)NCc1ccc(F)cc1
→ -5, 2, 103, 107
(94) O=C(O)CC1(CC(=O)Nc2cccc3nonc23)CCCCC1
→ -10, -27, 99, 94
(93) CC1=Nc2cc(C(=O)O)ccc2Sc2c(C)ccc(C)c21
→ -4, -27, 102, 102

Additional compounds.
97: Cc1ccc2c(c1)c1c(n2CCC#N)C(=O)CCC1
98: COc1ccc(CC(=O)Nc2cc(C)on2)cc1OC
99: O=C(CCS(=O)(=O)c1ccccc1)N(Cc1ccccn1)c1nc2ccccc2s1
100: CN(C)Cc1ccc(CSCCNC(=O)Nc2ccccc2)o1
101: O=C(Nc1cccnc1)c1ccc(NC(=O)C2OCCc3ccccc32)cc1 (stereo not drawn)
102: CC(=O)NC1C(=O)N(CCc2ccccc2)c2ccc(C)cc21 (stereo not drawn)
103: CCOc1ccc2c(c1)sc(=NC(=O)CCOc1ccccc1)n2C

Assay by compound,97,98,99,100,101,102,103
Mtb MbtI inh,36,.,71*,6,-9,3,19
Mtb MenB inh,7,-7,-6,12,21,-11,-67
PV pol inh,100,102,104,103,99,99,103
PV pol inh intensity,103,104,101,96,101,100,103
